KCNQ2 inh: KCNQ2 potassium channel inhibitors, primary screen, cell-based, CHO-K1, FluxOR thallium flux, B-score (AID 2156); Potassium voltage-gated channel subfamily KQT member 2 (Rattus norvegicus), O88943; 310,000 tested, 1.1% active; 20 min; active compounds read low; only compounds with negative scores are shown here; some inactives read as strong as hits; B-score at 10 µM;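 active = fluorescence ratio B-score at most minus 3 library SDs, with starting brightness B-score within 2 library SDs, cut at about -5.5 in these data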
Target sequence (O88943 whole entry, looked up): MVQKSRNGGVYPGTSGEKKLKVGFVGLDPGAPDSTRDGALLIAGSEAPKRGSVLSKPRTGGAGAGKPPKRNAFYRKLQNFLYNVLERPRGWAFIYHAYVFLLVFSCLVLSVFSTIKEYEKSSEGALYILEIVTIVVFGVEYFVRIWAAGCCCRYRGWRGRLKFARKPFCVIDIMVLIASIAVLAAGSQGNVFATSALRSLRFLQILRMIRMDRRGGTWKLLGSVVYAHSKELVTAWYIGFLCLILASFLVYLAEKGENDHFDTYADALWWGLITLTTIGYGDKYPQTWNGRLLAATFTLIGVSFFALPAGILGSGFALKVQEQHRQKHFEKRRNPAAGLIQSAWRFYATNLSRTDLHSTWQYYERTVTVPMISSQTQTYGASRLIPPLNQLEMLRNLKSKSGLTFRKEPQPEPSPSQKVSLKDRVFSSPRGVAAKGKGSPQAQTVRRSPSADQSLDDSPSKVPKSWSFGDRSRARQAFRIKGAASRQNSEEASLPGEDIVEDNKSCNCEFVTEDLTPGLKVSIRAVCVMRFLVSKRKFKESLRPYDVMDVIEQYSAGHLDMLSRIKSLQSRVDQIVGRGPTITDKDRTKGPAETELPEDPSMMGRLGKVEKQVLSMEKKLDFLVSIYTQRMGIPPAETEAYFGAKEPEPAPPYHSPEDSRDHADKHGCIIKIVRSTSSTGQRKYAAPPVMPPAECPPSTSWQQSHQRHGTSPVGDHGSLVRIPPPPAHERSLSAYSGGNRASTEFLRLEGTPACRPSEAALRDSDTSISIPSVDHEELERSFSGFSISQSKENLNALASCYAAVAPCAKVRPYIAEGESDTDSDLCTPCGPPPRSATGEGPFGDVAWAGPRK
KCNQ2 inh baseline: also measured in KCNQ2 inh; calls as there; B-score; measured here: initial fluorescence intensity artifact check;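 brightness before thallium and not channel activity; 0 = typical well and far values either way flag optical interference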
* hit, by the source's call; i = inactive. These rows are one share of the data. The share of hits here may be higher or lower than overall.

Structure | KCNQ2 inh | KCNQ2 inh baseline
COc1ccc2[nH]c(=O)c(C(c3nnnn3C3CCCC3)N3CCN(Cc4ccc5c(c4)OCO5)CC3)cc2c1 (stereo not drawn) | i | -0.29
COC(=O)c1ccc(OCCN2C3=NCCN3c3ccccc32)cc1 | i | -0.99
COCn1c(-c2cccc(Br)c2)nc2ccccc21 | -5.9* | 1.9*
Cc1cc(CC(C)C)n(-c2nc3ccccc3c(=O)n2OCC(N)=O)n1 | i | 0.29
O=C(NCC(c1ccco1)N1CCN(c2ccccc2)CC1)c1ccc2c(c1)OCO2 (stereo not drawn) | i | 0.36
O=C(COc1ccc([N+](=O)[O-])cc1)NCc1cccnc1 | i | -0.93
Cc1c(N=NC2=C(O)CC(C)(C)CC2=O)c(=O)n(-c2ccccc2)n1C | i | 0.04
COc1ccc(C=C(C(C)=O)C(C)=O)cc1OC | i | 1.3
CCOc1cc(-c2ccccc2)nc(N)n1 | i | 0.59
CCCNC(=S)N1CCN(c2nc(-c3cccc(OC)c3)cs2)CC1 | i | -0.33
CCOc1c2ccc(C(=O)NCc3ccc4c(c3)OCO4)cc2nn1CC | i | -1.6
CC(SCc1ccccc1)C(=O)Nc1ccccc1Br (stereo not drawn) | i | -0.79
Cn1cncc1COC(=O)c1ccc(Cl)cc1 | i | 0.83
CC(=O)N/C(=C\c1ccccc1)C(=O)OCC(=O)N1CCCCCC1 | i | 0.14
O=C(COc1ccc2c(-c3ccccc3)cc(=O)oc2c1)NCC1CCC(C(=O)O)CC1 (stereo not drawn) | i | 1.9
CC(=O)c1cc(NC(=O)c2ccc(C)cc2)c(=O)oc1C | i | 1.5
CCCNc1nc(Nc2ccc(C)c(Cl)c2)c2cnn(C)c2n1 | i | 1.4
CCOC(=O)NC(=O)CSc1nc(-c2ccc(C)c(C)c2)cn1-c1ccccc1 | i | -0.17
Cc1ccc(NC(=O)c2sc3nc4c(c(-c5ccco5)c3c2N)CCC4)cc1 | i | 0.38
COc1ccc(CCC(=O)NCCc2cn3c(C)csc3n2)cc1 | i | -0.44

2 compounds picked at random from the list so far, as already listed:
Structure | KCNQ2 inh | KCNQ2 inh baseline
Cc1ccc(NC(=O)c2sc3nc4c(c(-c5ccco5)c3c2N)CCC4)cc1 | i | 0.38
CCCNc1nc(Nc2ccc(C)c(Cl)c2)c2cnn(C)c2n1 | i | 1.4

Next entries follow:
Structure | KCNQ2 inh | KCNQ2 inh baseline
COc1ccc(OCCCC(=O)OC(C)C(=O)Nc2ccccc2[N+](=O)[O-])cc1 (stereo not drawn) | i | 2.9
O=C1c2ccccc2C(=O)N1CCSc1nncs1 | i | -0.01
COc1ccc2c(c1)[nH]c1c(=O)n(CCc3cnc[nH]3)cnc12 | i | 2.1
COc1ccc(CCNC(=O)C2CCN(S(C)(=O)=O)CC2)cc1OC | i | 0.02
N#CC(=C1CCCC1)c1nc(-c2ccc(Cl)cc2)cs1 | i | -1.4
COc1ccc(NS(=O)(=O)c2cc(NC(=O)c3ccc(=O)[nH]c3)ccc2N2CCOCC2)cc1 | i | -1.5
O=C(CSc1nnc(C2CC2)n1-c1ccccc1)NCCc1ccccc1 | i | 0.2
COc1ncnc(-c2ccccc2)c1-c1ccccc1 | i | 2.8
CCOc1cc(C(=S)N2CCOCC2)ccc1OS(=O)(=O)c1ccc(OC)cc1 | i | 0.7
CCOC(=O)C1CCC(CN(Cc2ccccc2)S(=O)(=O)c2ccc([N+](=O)[O-])cc2)CC1 (stereo not drawn) | i | -0.5
COc1ccccc1CC(=O)N1CCN(c2cccc(Cl)c2)CC1 | i | 1.4
COc1ccc(C(=O)NCCNC(=O)c2cc(OCC(F)(F)F)ccc2OCC(F)(F)F)cc1 | i | 1.9
CC(=O)Nc1cc(C(=O)N2CCOCC2)ccc1S(=O)(=O)c1ccc(C)cc1 | i | 0.35
CC(=O)N(CCP(=O)(c1ccccc1)c1ccccc1)Cc1ccco1 | i | 1.1
CC(NC(=O)[C@@H](C)NC(=O)[C@@H]1Cc2ccccc2CN1C(=O)OC(C)(C)C)c1ccccc1 (stereo partly drawn) | i | 1.5
CC(C)c1nnc(SCC(=O)NC2CCCC2)n1C | i | 0.8
COc1cc(C)c(/C=C/C(C)=C/C=C/C(C)=C/C(=O)O)c(C)c1C | i | 0.68
COc1ccc(NC(=O)Cn2cc(C(C)=O)c3ccccc32)cc1 | i | -0.82
O=C(Cc1ccsc1)NCc1ccccc1F | i | -0.55
O=C(NCc1ccco1)c1cc(C(=O)C2CC2)c[nH]1 | i | -0.26
COc1ccc(-c2sc(Nc3ccccc3)n[n+]2-c2ccc(F)cc2)cc1Br | i | -0.8
CCN(CC)S(=O)(=O)c1cccc(C(=O)NCc2ccccc2)c1 | i | -2.2
Cc1ccc(CNC(=O)c2ccc(Cn3cc(-c4ccc(C)cc4)nc3-c3ccncc3)cc2)cc1 | i | 0.27
COc1cc(S(=O)(=O)NC2CCCCC2)c(C)cc1C | i | 2.1
O=C(O)COc1ccccc1C1C2C(=O)N(c3ccc(F)cc3)C(=O)C2ON1c1ccccc1 (stereo not drawn) | i | 0.11
N#Cc1ccc(C(=O)Nc2cccc(NC(=O)c3ccco3)c2)c(F)c1 | i | 0.27
CCSc1ncc(/C=N/Nc2ccc(F)cc2)n1C | -8.5* | -2.2*
N#CCOC(=O)C1CCN(S(=O)(=O)c2ccc3c(c2)OCCO3)CC1 | i | -1.7
CCCC(=O)Nc1ccc2oc(-c3ccc(OC)c(Br)c3)nc2c1 | i | 0.87
COc1ccc(NC2=C(Cl)C(=O)N(CCc3ccccc3)C2=O)cc1 | i | -0.22
Cc1ccc(N2CCN(CC(O)COc3ccc([N+](=O)[O-])cc3)CC2)cc1 (stereo not drawn) | i | 0.28
c1ccc2c(c1)OCC(CNc1ncnc3sccc13)O2 (stereo not drawn) | i | -0.14
COc1ccc2[nH]c(=O)c(-c3nnn(-c4ccc(Cl)c(Cl)c4)n3)cc2c1 | i | -0.02
O=C1OCc2ccc(NC(=O)c3c(F)cccc3Cl)cc21 | i | 0.52
Cc1cccc(C)c1NC(=O)CSc1nc(C2CC2)nc2ccccc12 | i | 1.7
CCOC(=O)c1ccc(NC(=O)Nc2ccc3c4c(cccc24)C(=O)N3CC)cc1 | i | 1.3
COC(=O)c1cc(NC(=O)c2ccccc2F)cc(C(=O)OC)c1 | i | -3.2
CCOC(=O)N1CCN(C(=O)CN(c2cccc(OC)c2)S(C)(=O)=O)CC1 | i | -0.16
COC(=O)C1=C(C)N(C)C(C)=C(C(=O)OC)C1c1ccc(F)c(Br)c1 | i | -0.75
Cc1ccc(S(=O)(=O)Cn2nnnc2C(c2ccccn2)N2CCN(c3ccccc3)CC2)cc1 (stereo not drawn) | i | 0.41
CCC(C(=O)NC1CCCC1)N(C(=O)c1snc(C(N)=O)c1N)c1ccc(OC)c(OC)c1 (stereo not drawn) | i | 1.4
COc1c(Cl)cnn(-c2ccc(C)cc2)c1=O | i | -0.95
Cc1cccc(OCC(=O)NC(Cc2ccccc2)C(=O)O)c1 (stereo not drawn) | i | 1.9
CC(=O)N1CCC(=O)N(C(C)C)c2ccccc21 | i | -1.5
COc1ccc(C(=O)CSc2nnc(CN3CCCCC3)n2-c2ccc(F)cc2)cc1 | i | -1.1
CC(Sc1nncs1)C(=O)NCC(=O)Nc1ccc(F)c(F)c1F (stereo not drawn) | i | -0.04
COC(=O)c1c(NC(=O)COC(=O)[C@@H](NS(=O)(=O)c2ccc(C)cc2)C(C)C)sc2c1CCC2 | i | -1.9
COC(=O)c1ccc(OCC(=O)c2cccc(OC)c2)cc1 | i | -0.34
NC(=O)c1ccsc1NC(=O)c1ccc(S(=O)(=O)N2CCCc3ccccc32)cc1 | i | -1.4
CCCOc1ccc(C(=O)N2CCN(c3ccc(NC(=O)CC)cc3Cl)CC2)cc1 | i | -0.06
CCOc1ccc(NC(=O)CSc2cn[nH]n2)cc1 | i | 4.9
C=CCC(Nc1ccccc1)c1ccc(OC)c(OC)c1 (stereo not drawn) | i | -0.8
O=C(O)CCSc1nnc(COc2ccc([N+](=O)[O-])cc2)n1-c1ccccc1 | i | 0.02
COc1ccccc1NC(=O)Cn1nc(-c2ccncc2)nc1SCC(=O)NC1CCCC1 | i | 0.83
Fc1ccc(NC(=S)NN2CCOCC2)cc1Cl | i | -0.55
COc1ccc(C2NC(=O)NC(C)=C2C(C)=O)cc1 (stereo not drawn) | i | 0.6
CC(=O)c1ccc(N2CCN(S(=O)(=O)c3c(C)[nH]c(=O)[nH]c3=O)CC2)cc1 | i | 0.33
CCN1CCN(CC(O)COCc2cc(OC)c(OC)c(OC)c2)CC1 (stereo not drawn) | i | 2.1
Cc1ccccc1-c1nc(CS(=O)(=O)CC(=O)N(C)C2CCCCC2)c(C)o1 | i | 1.2
O=C(CCc1nnc(-c2ccccc2)o1)NCc1cc(F)ccc1F | i | -1.2

Additional records
Structure | KCNQ2 inh | KCNQ2 inh baseline
Cc1ccc2oc(C(=O)N(Cc3ccncc3)CC3CCCO3)c(C)c2c1 (stereo not drawn) | i | 0.65
Cc1ccc(NC(=O)c2cc3c(s2)CCCC3)cc1S(=O)(=O)Nc1ccccc1Cl | i | 2.5
COc1cc(OC)nc(Oc2ccccc2C(=O)Oc2ccc(C)cc2)n1 | i | 0.05
CC1CC(=O)C(C2c3ccccc3CCN2C(=O)CCl)C(=O)C1 (stereo not drawn) | i | -0.92
COc1ccc2nc(NC(=O)c3cnccn3)sc2c1 | i | -0.52
CCn1c2ccccc2c2cc(NC(=O)COC(=O)c3cc(OC)c(OC)cc3OC)ccc21 | i | 0.96
Cc1cc(C)cc(NC(=O)N2CCCC2C(=O)NCc2ccco2)c1 (stereo not drawn) | i | 0.41
Cc1ccc(/C=N/NC(=O)CNC(=O)c2ccc(S(=O)(=O)N(C)C)cc2)cc1 | i | -1.3
O=C(Cn1ncc2c([nH]c3ccccc32)c1=O)NCCc1ccc(Cl)cc1 | i | 0.13
O=C(C1CCC1)N(CCc1ccccc1)Cc1nc2ccccc2c(=O)[nH]1 | i | 0.01
COc1cc2c(cc1OC)CN(c1ccc(F)cc1[N+](=O)[O-])CC2 | i | -2.6
Clc1cnc2nc(SC/C=C/c3ccccc3)[nH]c2c1 | i | -0.92
COc1ccc(N2CCN(c3nc(Nc4ccc(C)c(F)c4)nc(N4CCCC4)n3)CC2)cc1 | i | -0.71
O=C(Cn1cnc2c(cnn2-c2ccc(F)cc2)c1=O)OCc1ccccc1 | i | 0.33
O=C(C1CCC(=O)N(C2CC2)C1)N1CCC(Oc2cccc(C(F)(F)F)c2)CC1 (stereo not drawn) | i | 0.32
CN1CCN(C(=O)c2cc3c(ccc4ccccc43)oc2=O)CC1 | i | 1.8
CC(=O)c1ccc(OCc2cc(C(=O)NC(C)c3cnn(C)c3)no2)cc1 (stereo not drawn) | i | 1.4
O=C(Cc1c(F)cccc1Cl)NCC1CCCO1 (stereo not drawn) | i | -0.66
NC(=O)COc1ccccc1C(=O)O | i | 2
CN(C1CCCCC1)S(=O)(=O)c1ccc(S(=O)(=O)N2CCCC2)cc1 | i | -2.9
CNC(=O)c1ccc(Nc2nnc(-c3ccc(C)c(S(=O)(=O)NCC4CCCO4)c3)c3ccccc23)cc1 (stereo not drawn) | i | -0.69
N#Cc1c(N)nc2c(c1-c1ccc3c(c1)OCO3)CCc1ccccc1-2 | i | 0.1
CC(C)C(=O)Nc1nnn(C)n1 | i | -2.8
O=c1oc2cc(O)ccc2s1 | i | -0.45
COc1ccccc1NC(=O)COC(=O)Cc1c[nH]c2ccccc12 | i | -0.14
CCOC(=O)C1ON2CCCCC2C1(O)C(F)(F)F (stereo not drawn) | i | 0.86
O=C(Nc1ccccc1N1CCCCC1)c1ccc(F)cc1 | i | 4.5
Cc1oc(C(C)(C)C)cc1C(=O)Nc1ccc(N2CCOCC2)cc1 | i | -1.5
Cc1cccc(NC(=O)c2cc(S(=O)(=O)c3ccccc3)ccc2Cl)c1 | i | 0.97
COc1cc(-c2nc3cnccn3c2Nc2c(C)cccc2C)ccc1O | i | -0.29
CCc1nn(CCCC(=O)NCc2ccccc2Br)c(=O)c2cc3occc3n12 | i | 1.2
c1ccc(Cn2nnnc2C(c2cccs2)N2CCCCCC2)cc1 (stereo not drawn) | i | 0.74
Cc1onc(-c2ccccc2)c1C(=O)NCc1ccco1 | i | 0.24
CN1CCN(NC(=S)Nc2ccccc2)CC1 | i | 0.89
COc1ccccc1P(=O)(Cc1ccccc1)c1ccccc1 (stereo not drawn) | i | -0.24
Cc1ccc(NC(=S)N(CCN2CCCCC2)Cc2ccco2)cc1C | i | -1.1
Fc1cccc(-c2cc3nc4c(c(N5CCOCC5)n3n2)CCCC4)c1 | i | 0.91

Record cards (already shown). Values in the order: KCNQ2 inh	KCNQ2 inh baseline
Fc1cccc(-c2cc3nc4c(c(N5CCOCC5)n3n2)CCCC4)c1 is listed as i	0.91
CN1CCN(NC(=S)Nc2ccccc2)CC1 is listed as i	0.89
O=c1oc2cc(O)ccc2s1 is listed as i	-0.45
CCc1nn(CCCC(=O)NCc2ccccc2Br)c(=O)c2cc3occc3n12 is listed as i	1.2
